Rango release inh: inhibitors of RanGTP-induced Rango-importin beta complex dissociation | O95149+P62826 | Biochemical FRET Rango-importin beta, RanGTP-induced dissociation | Potency, µM (series often up to 46.1 µM), without a hit: at the highest dose activity change, negative = inhibition | 340,000 tested, 0.071% active | AID 540253; active means falling FRET ratio curve, often poorly fitted, with flat reads before Ran was added; inconclusive means other falling curves, or compound fluorescence or quenching; inactive means flat or rising ratio curve;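 further: potency means the concentration at half of the fitted maximal effect; % of control where 0% means no effect; nearly all actives have a fitted effect of over 45% in size; -100% = wells without RanGTP and RCC1; the record marks most hits as doubtful in a second field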
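Rango FRET biosensor (snurportin-1 IBB flanked by N-terminal EYFP and C-terminal CFP10) at 0.1 uM, with 0.25 uM importin beta in PBS, 1mM DTT, 0.02% Tween-20, 0.1% BSA. 0.6 uM Ran, 2mM GTP and 0.2 uM RCC1 were then added for 45 min at room temperature. Inhibition read as loss of FRET rise.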
Rango complex inh: prevents formation of the Rango-importin beta complex; Q14974; Rango CFP/YFP FRET sensor + importin beta, 45 min; Potency, µM (highest dose often 92.2 µM), for the others: at the highest dose inhibition of complex formation; 340,000 tested, 0.031% active; active = rising FRET ratio curve, often small or poorly fitted; inconclusive = mostly compound fluorescence or quenching in the first reads; inactive = flat curves in all reads;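 further: potency means the concentration at half of the fitted maximal effect; 0% = DMSO wells and 100% = buffer wells lacking importin beta; nearly all actives have a fitted effect of over 15% in size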
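Inhibition scored from the CFP 486 nm/YFP 530 nm FRET ratio 45 min after adding 0.125 microM importin beta to 50 nM Rango biosensor preincubated 5 min with compound (room temperature, PBS with DTT, Tween-20, BSA). No-importin wells as positive control.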
GLA inh pH 4.5: alpha-galactosidase A (human) inhibition, pH 4.5; P06280; purified enzyme, 4-MU-alpha-Gal fluorescence, pH 4.5; activity change, negative = inhibition, % at 105 µM; 230,000 tested, under 10 active; inconclusive = small, poorly fitted or top-dose-only inhibition, or a rising curve; inactive = flat fitted curve, though single readings scatter; no compound was filed as active;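 further: 0% = full activity with enzyme and -100% = basal without enzyme; dose as in the result columns while the protocol names 77 µM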
Target sequence (P06280 whole entry, looked up): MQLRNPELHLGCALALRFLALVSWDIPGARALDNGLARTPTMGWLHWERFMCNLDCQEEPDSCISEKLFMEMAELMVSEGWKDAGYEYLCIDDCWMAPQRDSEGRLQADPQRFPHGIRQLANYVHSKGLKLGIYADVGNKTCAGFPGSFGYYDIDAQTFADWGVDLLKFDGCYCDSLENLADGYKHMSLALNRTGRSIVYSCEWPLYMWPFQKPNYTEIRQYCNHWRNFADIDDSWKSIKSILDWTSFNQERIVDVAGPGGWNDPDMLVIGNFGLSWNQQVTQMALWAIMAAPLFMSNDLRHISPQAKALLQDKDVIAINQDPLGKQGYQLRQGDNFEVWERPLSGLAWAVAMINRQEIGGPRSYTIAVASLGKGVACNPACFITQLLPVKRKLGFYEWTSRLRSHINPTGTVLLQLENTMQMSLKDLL
miR-21 reporter: miR-21 reporter, rising signal; HeLa miR-21 FLuc reporter, luciferase, 48 h; 340,000 tested, under 10 active; AID 2288; Potency, µM (highest dose often 38.3 µM), for inactives: at the highest dose reporter change, positive = more light; active = well fitted rising curve with a large enough effect; inconclusive = small, poorly fitted or top-dose-only effect; inactive = no such curve, though single readings can be large or run the other way;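 further: % of control where 0% means no effect; miR-21 action dims this reporter so a rising signal means less miR-21 action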
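HeLa miR-21-FLuc reporter line, endogenous miR-21; 2000 cells/well in DMEM/10% FBS; compound titration up to ~40uM final, 48 h, 37 degree Celsius; luciferase detection reagent, 15 min lysis, CCD luminescence.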
* = called active by the depositor; u = inconclusive; x = no result given; & = joins results of further samples. Only part of the results is shown; the hit share may differ from the screen's.

SMILES	Rango release inh	Rango complex inh	GLA inh pH 4.5	miR-21 reporter
Cc1ccc(Nc2nnc(SC(C)C(=O)Nc3c(C)n(C)n(-c4ccccc4)c3=O)s2)cc1 (stereo not given)	-2%	-3.8%	2	-16%
COc1ccc(CN2C(=O)c3cccnc3C2Nc2cc(Cl)ccc2OC)cc1 (stereo not given)	3%	-3.3%	-1	-3%
COC(=O)c1cc(Br)c(=O)n(Cc2ccc(C(=O)O)cc2)c1	1%	0.5%	5	-2%
COc1cccc(NC(=S)N(CCc2c(C)[nH]c3ccccc23)Cc2ccco2)c1	0%	-4.3%	-3	7%
COc1ccccc1CN(C)CC(=O)Nc1ccccc1-c1ccccc1	-11%	2.5%	-9	6%
CC(C)CNC(=O)COc1ccccc1[N+](=O)[O-]	-10%	-2.8%	-5	-20%
CCOc1ccc(CCNc2nc3ccccc3n3c(C)nnc23)cc1OCC	-1%	0.5%	x	-1%&-2%
COc1ccc(-c2cn3c(C)c(C(=O)N4CCN(c5ccccc5)CC4)sc3n2)cc1	0%	0.3%	x	x
Cc1noc(C)c1C(=O)N1CCN(c2ncccn2)CC1	9%	-1.1%	-1	-7%
CC1=C(C(=O)OC2CCCCC2)C(c2ccc(N(C)C)cc2)NC(=O)N1 (stereo not given)	-14%	u	x	-3%
O=c1[nH]c(CSc2nnc(-c3cccnc3)n2C2CCCCC2)nc2ccccc12	3%	5.1%	-10	1%
Cc1ccc(S(=O)(=O)N2CCN(Cc3cccc(F)c3)CC2)cc1	-1%	-0.2%	x	x
O=C(CSc1nnc(CNC(=O)c2c(F)cccc2F)o1)NCc1ccc(F)cc1	-4%	0.0%	x	-5%
NNC(=O)CNC(=O)CNS(=O)(=O)c1ccccc1	-8%	-0.8%	7	-1%
CC(=O)N1CCc2cc(S(=O)(=O)CCC(=O)Nc3ccc4c(c3)OCCO4)ccc21	8%	3.6%	-5	-10%
O=C(/C=C/c1ccccc1)N1CCN(c2cccc(Cl)n2)CC1	15%	-0.9%	-1	0%
CCOc1ccc(NC(=O)C2CC(=O)N(c3ccc4c(c3)OCCO4)C2)cc1OCC (stereo not given)	-15%	5.0%	x	x
Oc1cccc(/C=N/NC(=S)Nc2cccnc2)c1O	-23%	u	-6	-6%
Cc1ccc2c(CC(=O)NCC3(N4CCOCC4)CCCCC3)coc2c1C	-1%	-0.4%	x	x
CCOc1ccc(NC(=O)C2C(C(=O)O)C3(Cl)C(Cl)=C(Cl)C2(Cl)C3(Cl)Cl)cc1 (stereo not given)	-17%	-3.4%	-4	1%
COc1ccc(NC(=O)N2CCN(C(=O)C(Cc3ccc(F)cc3)NC(C)=O)CC2)cc1 (stereo not given)	12%	4.6%	0	-16%
Cc1csc(NC(=O)CSc2nc(=O)n(CCCN(C)C)c3c2CCC3)n1	2%	-1.0%	x	x
CCN1C(=O)/C(=C/N(C(C)=O)c2ccccc2)N(c2ccccc2)C1=S	-3%	0.3%	-6	18%
CCN(CCCNC(=O)C1CCN(S(=O)(=O)N2CCC3(CC2)OCCO3)CC1)c1ccccc1	0%	-3.0%	3	-3%
COc1ccc(S(=O)(=O)N2CCN(CC(=O)N3c4ccccc4CC3C)CC2)cc1OC (stereo not given)	3%	-3.2%	x	x
Cc1onc(-c2ccccc2Cl)c1C(=O)NNC(=O)c1nn(C)cc1Cl	1%	-2.2%	10	-4%
COc1ccccc1N(CC(O)COc1ccc(C)cc1)S(=O)(=O)c1ccccc1 (stereo not given)	7%	-1.6%	-13	-2%
Cc1cc2nnc(SCc3ccccc3)n2c(N)n1	-3%	-0.4%	-9	-9%
NC(=O)COC(=O)c1cccc2c1-c1ccccc1C2=O	19%	-0.7%	-1	1%
Cc1cc(C=O)sc1[B-](F)(F)F	-2%	0.6%	x	x
O=C(CNC(=O)c1cc(Cl)cc([N+](=O)[O-])c1)NC1CC1	0%	-1.7%	x	x
O=C(NC(=S)Nc1cc([N+](=O)[O-])ccc1O)c1cccnc1	0%	0.1%	-5	-12%
CC(=O)Nc1ccc(S(=O)(=O)Nc2cc(-c3ccccc3)nn2C)cc1	-2%	4.0%	15	-1%
COc1ccccc1N1CCN(Cc2cc(=O)n3ccsc3n2)CC1	-15%	0.7%	-2	-11%
N#C/C(=C/c1ccc(N2CCOCC2)o1)C(=O)Nc1ccccc1	u	u	-5	-27%
COc1ccc(N2CCN(c3ccc4nnc(CCC(=O)Nc5ccc(C)cc5)n4n3)CC2)cc1	2%	-1.4%	x	1%
Cc1cc(N2CCOCC2)nc2ccc(NC(=S)NCCN(C)C)cc12	0%	-1.1%	x	-5%
CC(Sc1nnc(N)s1)C(=O)NC1CCCCC1C (stereo not given)	0%	2.4%	x	x
CCOC(=O)C1CCN(C(=O)c2ccc(CNS(=O)(=O)c3ccc(OC)cc3)cc2)CC1	4%	-2.5%	8	-2%
Cc1cc(Cl)ccc1Oc1ncnc2oc(-c3ccccc3)cc12	u	u	8	-5%
COc1ccc(CN=C2NC(=O)CC(C(=O)Nc3cc(C)cc(C)c3)S2)cc1 (stereo not given)	10%	u	0	-3%
Cc1nn(-c2ccccc2)c(C)c1NC(=O)COC(=O)CC(C)c1ccccc1 (stereo not given)	10%	0.9%	x	x
CCn1cc(C(=O)N2CCOCC2)c(=O)c2cc(S(=O)(=O)N(C)C3CCCCC3)ccc21	u	-2.7%	9	-3%
COc1cc(/C=C/C(=O)O)ccc1OS(=O)(=O)c1c(C)cc(C)cc1C	4%	6.3%	x	x
COc1ccc(C(=O)OCC(=O)Nc2nnc(-c3ccccc3)o2)cc1	-7%	1.9%	x	1%
c1csc(-c2noc(CN3CCc4sccc4C3)n2)c1	10%	3.9%	3	-41%
COc1ccc(/C=N/NC(=O)c2cccc(Br)c2)cc1CSc1ccccn1	-3%	0.0%	3	11%
CCOC(=O)N1CCC(n2c(SCC(=O)N3CCCC3)nc3ccccc3c2=O)CC1	-8%	-2.2%	4	-5%
CC(C)c1nc(SCC(=O)NCc2ccccc2)n[nH]1	-14%	1.9%	4	-2%
COc1ccc(OC)c(CN2CCN(C(=O)[C@@H](NC(=O)c3cccc(C)c3)C(C)C)CC2)c1	-9%	0.2%	x	x
Cc1cc(OCCN2CCCCC2)nc2ccccc12	3%	-3.5%	9	-4%
O=C(Nc1nc2ccsc2c(=O)s1)c1ccc(F)cc1	-11%	-0.9%	-2	-62%
CCOP(=O)(OCC)c1ccccc1OCP(C)(=O)COc1ccccc1P(=O)(OCC)OCC	5%	2.1%	x	-1%
Cc1ccc(Nc2cc(-c3ccccc3)nc3ncnn23)cc1	-14%	-0.1%	1	-4%
CCOC(=O)c1ccc(NC(=O)c2cc3c(C)nn(-c4ccccc4Cl)c3s2)s1	-11%	-1.9%	6	-6%
CC(=O)NC(CC(=O)O)c1ccc(F)cc1 (stereo not given)	-7%	0.2%	-21	-1%
COc1ccc(CN2CC(=O)N(c3cc(Cl)ccc3C)C2=S)cc1OC	-16%	-2.8%	x	-8%
O=C(c1ccco1)N1CCN(S(=O)(=O)c2c(Cl)cccc2Cl)CC1	17%	0.7%	x	-6%
CC1CCCC(NC(=O)COC(=O)[C@@H](NC(=O)c2ccccc2Cl)C(C)C)C1C (stereo not given in full)	1%	-5.2%	x	x
Cc1ccccc1N(CC(=O)N/N=C/c1cc(Br)c(C)o1)S(C)(=O)=O	-8%	0.9%	0	-9%

Pulled by structure from above, 3 records:
SMILES	Rango release inh	Rango complex inh	GLA inh pH 4.5	miR-21 reporter
COc1ccc(OC)c(CN2CCN(C(=O)[C@@H](NC(=O)c3cccc(C)c3)C(C)C)CC2)c1	-9%	0.2%	x	x
CC1CCCC(NC(=O)COC(=O)[C@@H](NC(=O)c2ccccc2Cl)C(C)C)C1C (stereo not given in full)	1%	-5.2%	x	x
COc1ccc(/C=N/NC(=O)c2cccc(Br)c2)cc1CSc1ccccn1	-3%	0.0%	3	11%

Remaining list, next part.
SMILES	Rango release inh	Rango complex inh	GLA inh pH 4.5	miR-21 reporter
O=C(Nc1ccc2c(c1)OCO2)c1n[nH]c(=O)c2ccccc12	6%	1.6%	2	-69%
Cc1ccc(Nc2ccncc2S(N)(=O)=O)cc1	18%	-1.7%	x	x
Cc1ccccc1Cn1ccc(-c2ccc3c(c2)OCO3)n1	7%	-2.0%	-30	-38%
O=C1CCc2cc(NS(=O)(=O)c3ccc(Cl)cc3)cc3c2N1CC3	2%	2.5%	x	x
Cc1ccsc1S(=O)(=O)N1CCCC(CCC(=O)NCc2ccccc2F)C1 (stereo not given)	1%	-6.8%	-3	-2%
CC(C)c1ccc(Nc2nnns2)cc1	16%	2.7%	1	-7%
C#CCOCCOCCOCCNc1nc(N2CCN(C(=O)[C@H]([C@@H](C)CC)n3cc([C@@H](N)CO)nn3)CC2)nc(N2CCN(C(=O)[C@H]([C@@H](C)CC)n3cc([C@@H](N)CC(C)C)nn3)CC2)n1	8%	-0.6%	1	-2%
NC(=O)C1CCN(C(=O)CSc2ncccn2)CC1	1%	-2.0%	-3	-1%
CCC(C)(C)NC(=O)Cc1ccc(OC)c(OC)c1	-5%	2.4%	6	-2%
Cn1c(=O)c2[nH]c(CCC3CCCC3)nc2n(C)c1=O	u	1.8%	x	x
COCCNC(=O)c1cccc(OC2CCN(Cc3ccc(F)c(OC)c3)CC2)c1	12%	1.4%	x	22%
O=C(Nc1nccs1)c1ccc(COc2ccc(Cl)cc2)o1	1%	1.8%	6	-18%
Cc1cc(NC(=O)c2ccccc2)cc(NC(=O)c2ccccc2)c1C	17%	-2.1%	x	1%
COc1ccc(C)cc1NC(=O)C(NCC(O)c1ccccc1)c1ccccc1 (stereo not given)	-9%	3.6%	x	3%
Cc1ccc2[nH]c(=O)c(CC=C(Cl)Cl)c(C)c2c1	-3%	-1.3%	-6	-3%
NNc1nnc2c3cc(F)ccc3n(CCc3ccccc3)c2n1	-14%	-2.8%	x	-9%
NC(=O)CC(NC(=O)c1ccccc1)c1ccc(NC2CCCC2)c([N+](=O)[O-])c1 (stereo not given)	8%	0.4%	5	-7%
O=C(CN1CCN(C(=O)CN2C(=O)NC3(CCCC3)C2=O)CC1)Nc1cccc(F)c1	1%	-1.5%	x	x
Cc1ccc(C2CCN(C(=O)Nc3ccccc3)C2)cc1 (stereo not given)	1%	0.6%	-2	-39%
O=C(NCCNC(=O)Nc1ccc(Cl)cc1)Nc1ccc(Cl)cc1	0%	1.8%	x	x
COc1cc(/C=C/C(=O)OCC(=O)Nc2ccccc2Sc2ccc(Cl)cc2)ccc1O	u	u	-21	-5%
COC(=O)CCc1c(C)c(C(=O)c2cc(OC)c(OC)c(OC)c2)c2ccccn12	-7%	-0.5%	x	22%
COC(=O)c1ccc(OC(=O)CCN2C(=O)C3C4c5ccccc5C(c5ccccc54)C3C2=O)cc1 (stereo not given)	-5%	-0.2%	1	-5%
COc1ccc(C2SC[C@@H](C(=O)O)N2C(C)=O)cc1 (stereo not given in full)	-13%	1.0%	3	0%
O=S(=O)(Nc1cccnc1)c1cccnc1	-6%	5.7%	x	x
CCS(=O)(=O)C1=NSC2=NC(=O)/C(=C\c3ccc(OS(=O)(=O)c4ccccc4)cc3)C(=N)N21	u	u	x	-7%
CCOC(=O)N/N=C\c1cccc(OC)c1	2%	0.0%	-4	-34%
CCOc1ccc(NC(=O)CCc2nnc3ccc(N4CCN(C)CC4)nn23)cc1	-12%	3.0%	x	2%
O=C(NCCO)c1cccc(Cl)c1	1%	4.2%	6	1%
Cc1nn(-c2ccccc2)c(Cl)c1/C=N/NC(=O)CCNc1n[nH]c(=O)[nH]c1=O	0%	0.6%	4	4%
COc1ccc(NC(=O)COC(=O)[C@@H]2CCCN2C(=O)c2cccs2)cc1	-14%	0.0%	-9	-5%

Screening data (PubChem BioAssay)
